From PubChem
eIF4H FP inh = inhibitors of RNA binding by human eIF4H; eIF4H fluorescence polarization binding assay; inhibition, % at 35 µM; actives 0.94% (n = 290,000);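 active = 50% or more with normal probe brightness, or confirmed in later tests; inconclusive = above 50% with abnormal brightness, or retests that disagree; inactive = below 50% or failed in later tests; about a fifth of its hits are not listed in these tables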;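 note: calls also rest on retests at 20 µM and on dose response follow-up; 0% = protein and probe with vehicle and 100% = probe without protein; strong numbers were not always called active; many hits fall short of the cut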
Env fusion inh = HIV envelope-mediated fusion inhibition; actives 1.1% (n = 360,000); HeLa-JRFL Env/CEM21 cell fusion, luciferase; inhibition, % at 12.3 µM;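 active = mean replicate inhibition score of at least 50 and every replicate individually at or above 50; inconclusive = only one of the two criteria met; inactive = mean below 50 and not all replicates reaching 50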;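 note: 0% = plate neutral controls and 100% = maraviroc near 300 nM; one replicate is shown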
MT1-MMP act inh = MT1-MMP (human) activation inhibition; P50281; HT1080 RFP-PRO-GFP cells, GFP/RFP ratio fluorescence, overnight; percent of plate control window, DMSO zero; GFP/RFP ratio change, % at 20 µM; actives 0.061% (n = 360,000);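 active = GFP/RFP ratio change of at least 30% with cell ATP level not reduced by more than half and red fluorescence within 50% of control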; note: strong numbers were not always called active
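Assay system – RFP-PRO-GFP reporter HT1080 cells · Compound dosing – single dose of 20 µM compound, 1% DMSO final · Incubation – overnight compound exposure at 37 °C · Measure – GFP/RFP fluorescence ratio · Benchmarks – DMSO wells and RFP-L50D-GFP cells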
PABP FP inh = PABP-poly(A) binding inhibition. P11940. PABP-poly(A) RNA binding, fluorescence polarization. inhibition, % at 35 µM. actives 1% (n = 290,000). AID 2014;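 active = 50% or more with normal probe brightness, or confirmed in later tests; inconclusive = above 50% with abnormal brightness, or retests that disagree; inactive = below 50% or failed in later tests; about a fifth of its hits are not listed in these tables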;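 note: calls also rest on retests at 20 µM and on dose response follow-up; controls were probe without protein and protein plus probe with vehicle; some compounds called inactive have numbers as strong as hits; many hits fall short of the cut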
Target sequence (P11940 whole entry, looked up): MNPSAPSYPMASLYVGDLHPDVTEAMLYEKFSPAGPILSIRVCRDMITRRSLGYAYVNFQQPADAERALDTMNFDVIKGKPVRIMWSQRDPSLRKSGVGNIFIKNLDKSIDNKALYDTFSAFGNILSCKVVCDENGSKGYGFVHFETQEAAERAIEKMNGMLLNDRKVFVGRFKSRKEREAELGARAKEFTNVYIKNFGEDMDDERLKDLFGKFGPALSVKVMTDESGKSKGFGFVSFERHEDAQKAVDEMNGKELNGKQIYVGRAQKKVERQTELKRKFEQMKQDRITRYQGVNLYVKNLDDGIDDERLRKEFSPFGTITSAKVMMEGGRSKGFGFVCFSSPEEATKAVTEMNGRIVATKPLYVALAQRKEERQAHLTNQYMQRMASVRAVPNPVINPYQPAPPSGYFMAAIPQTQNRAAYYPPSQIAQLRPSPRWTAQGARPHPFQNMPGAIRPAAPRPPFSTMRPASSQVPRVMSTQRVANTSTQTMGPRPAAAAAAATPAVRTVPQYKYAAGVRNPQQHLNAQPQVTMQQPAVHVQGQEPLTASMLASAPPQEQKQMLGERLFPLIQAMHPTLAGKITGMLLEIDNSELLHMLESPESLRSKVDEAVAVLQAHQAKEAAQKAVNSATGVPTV
Yeast UUG start = yeast start codon fidelity modulation. S. cerevisiae UUG-firefly luciferase reporter, luminescence/redox ratio. activity score, % at 18.7 µM. actives 0.13% (n = 350,000). AID 602363;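 active = replicate mean at a twofold rise or more, about +100% in these data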;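 note: firefly luciferase made from a UUG start codon reports start codon fidelity; reporter light over untreated wells divided by growth signal over untreated wells; some hits fall short of that in this replicate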
CSC inhib = cancer stem cell inhibition. cancer stem cell-like cells viability, luminescence. inhibition, % at 7.5 µM. actives 1.1% (n = 300,000);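 active = mean at 75% or more and at least half the replicates too; inconclusive = mean and replicates disagree; tested in HMLE shEcad cells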;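 note: 0% = median of negative and 100% = median of positive control wells; the first replicate is given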
Rce1 inhib = inhibitors of yeast Ras-converting enzyme. AID 2563. Q03530. actives 0.27% (n = 290,000). calls only. yeast membranes, quenched prenylated peptide cleavage fluorescence;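 active = fall in fluorescence gain of 50% or more versus controls, with final raw signal at or below 3038400; inconclusive = same 50% fall but final raw signal above 3038400; inactive = fall in fluorescence gain under 50%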;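 note: plate controls were neutral control wells for no effect and wells lacking membranes for full effect; tested at 10 µM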
PABP FP inh retest = second read-out of PABP FP inh, no call of its own (marks repeat the call); inhibition, %; compound at 20 µM; confirmation repeats;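 mean of two retest wells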
MT1-MMP act inh RFP = further read-out of MT1-MMP act inh, marked with its call; RFP signal change, %; measured here: RFP expression control read;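 0 = vehicle wells; hits needed this value within 50% of zero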
* marks the source's active call; other numbers are inactive results; i = inactive; ? = inconclusive; · = no result given.

SMILES	eIF4H FP inh	Env fusion inh	MT1-MMP act inh	MT1-MMP act inh RFP	PABP FP inh	Yeast UUG start	CSC inhib	Rce1 inhib	others
COc1cc(OC)cc(C(=O)NN2CCOCC2)c1	-14	9	1	3	3	-7	13	i
O=C1OCCC/C1=C\c1ccc2c(c1)OCO2	8	20	-1	3	3	-10	-3	i
Cc1cnc(NC(=O)c2cc3ccccc3o2)s1	1	-74	6	2	-2	·	1	i
COc1ccc(CCC(=O)NCCS(=O)(=O)N2CCN(c3ccc(OC)cc3)CC2)cc1	-1	11	4	-8	0	-5	-26	i
CCOc1ccc(-c2noc(CCC(=O)NC)n2)cc1OCC	5	-12	2	3	2	-7	-12	i
NS(=O)(=O)c1ccc(Nc2ccc3cc(S(=O)(=O)N4CCCCC4)ccc3n2)cc1	3	10	3	1	8	1	7	i
O=C(CSc1nnc(NC(=O)C2CC2)s1)Nc1ccccc1C(F)(F)F	-11	-6	4	0	16	-18	-10	·
Cc1ccc(CC(=O)N(Cc2ccccc2)c2ccccn2)cc1	5	3	-3	1	-5	·	-4	i
CCOC(=O)C1=C(C)N(CCCC(=O)O)C(=O)NC1C(CC)CC (stereo not given)	·	-7	1	6	·	-6	-17	i
CCN1CCN(CCCNC(=O)c2ccc(/C=C3/Sc4ccccc4N(Cc4ccccc4F)C3=O)cc2)CC1	-12	-5	5	-1	-8	-11	104*	i
CCOC(=O)c1ccc(NC(=O)c2cc3ccccc3o2)cc1	-10	·	0	-17	-11	-2	-11	i
Cc1ccc2c(c1)c(=O)c1c3n2CCN(C(=O)CCl)C3CC1 (stereo not given)	?	·	-1	8	35*	-20	-9	i	PABP FP inh retest=99*
Cc1ccc(NC(=O)Cn2c(=O)oc3ccccc32)cc1C	-2	-12	2	0	3	3	-11	i
CCCCC(=O)NC(=S)Nc1cc(C(=O)O)ccc1Cl	-4	4	5	7	8	·	-3	i
Cc1cc(C)nc(SCc2nnc(SCC(=O)Nc3nc(-c4ccccc4)cs3)n2C)n1	-12	·	-3	-1	-13	-19	9	i
O=C(CN1N=C(c2ccccc2)CCC1=O)NCc1cccs1	-14	-5	1	2	7	·	·	i
N#C/C(=N\Nc1ccccc1)C(=N)N1CCCCC1	-7	·	1	1	-8	·	0	i
CCN(C(=O)Cn1c(=O)n(Cc2ccccc2)c(=O)c2ccccc21)c1cccc(C)c1	-6	-2	-4	-5	-7	·	·	i
O=C(NC1CCCCC1)C(c1ccc(F)cc1)N(CCN1CCOCC1)C(=O)c1ccc(-c2ccccc2)[nH]1 (stereo not given)	0	-133	-4	-4	-5	·	12	i
Cc1ccc(-c2nnc(CN3CCN(C)CC3)o2)cc1	-3	15	-4	-6	0	-14	-7	i
CC(=O)NC1CCCN(O)C(=O)/C=C(\C)CCOC(=O)C(NC(C)=O)CCCN(O)C(=O)/C=C(\C)CCOC(=O)C(NC(C)=O)CCCN(O)C(=O)/C=C(\C)CCOC1=O (stereo not given)	28	·	2	3	21	-17	-4	i
Cc1cc(=O)[nH]c(SCC(=O)Nc2ccc(N3CCCCC3)cc2)n1	·	·	3	-3	·	-10	-14	·
COc1ccc(-c2noc(C3CCCN(S(=O)(=O)c4cccc(Cl)c4C)C3)n2)cc1OC (stereo not given)	7	-37	-2	-4	-12	-6	4	i
CCOC(=O)c1sc(NC(=O)CSc2nnc(-c3ccco3)n2CC)c(C(=O)OCC)c1C	-3	·	-9	-6	-6	-5	8	i
CCOc1cc(C)nc(Oc2ccc(=O)[nH]n2)n1	-6	3	0	7	-5	-14	2	i
Cc1nc(NC(=O)c2ccccc2)sc1-c1csc(Nc2cccc(Cl)c2)n1	0	·	·	·	6	·	2	i
COc1cc(C(=O)NC2CCCCCCC2)cc(OC)c1OC	·	4	2	1	·	·	-8	i
O=C(Cc1ccccc1)NCC(=O)OCC(=O)c1ccc(Cl)cc1	0	8	1	5	-1	3	-10	i
CS(=O)(=O)c1ncc(Cl)c(C(=O)Nc2ccc3ccccc3c2)n1	16	-260	-3	-10	4	·	·	i
CCC(=O)Nc1nc(C)c(C(=O)Nc2cccc(Cl)c2)s1	-2	-34	2	-1	3	-27	·	i
CC(C)C[C@@H](CN1CCC[C@@H]1CN1C(=S)NC[C@@H]1Cc1ccccc1)N1C[C@H](Cc2ccc(O)cc2)N(CC2CCCCC2)C1=S	·	20	3	2	·	-16	·	·
CCOc1ncccc1C(=O)OCC(=O)Nc1ccc2c(c1)OCO2	21	-12	1	2	19	-15	-3	i
CCn1c(Cc2ccccc2)nnc1SCC(=O)Nc1nc(C)cs1	-6	-37	1	5	35	-14	-5	i
O=C(c1ccc2c(c1)OCCO2)N(c1ccccn1)C1CCCCC1	2	·	2	0	-7	-1	5	i
COc1ccc2c(C)c(CC(=O)N3CCN(C(=O)C4COc5ccccc5O4)CC3)c(=O)oc2c1C (stereo not given)	-14	0	1	-3	1	-8	-9	i
O=c1[nH]cnc2sc3c(c12)CCN(Cc1ccccc1)C3	19	·	-16	-3	11	·	10	i

Part of the list above in order of molecular weight, rising:
SMILES	eIF4H FP inh	Env fusion inh	MT1-MMP act inh	MT1-MMP act inh RFP	PABP FP inh	Yeast UUG start	CSC inhib	Rce1 inhib	others
CCOc1ncccc1C(=O)OCC(=O)Nc1ccc2c(c1)OCO2	21	-12	1	2	19	-15	-3	i
CCn1c(Cc2ccccc2)nnc1SCC(=O)Nc1nc(C)cs1	-6	-37	1	5	35	-14	-5	i
Cc1nc(NC(=O)c2ccccc2)sc1-c1csc(Nc2cccc(Cl)c2)n1	0	·	·	·	6	·	2	i
COc1ccc2c(C)c(CC(=O)N3CCN(C(=O)C4COc5ccccc5O4)CC3)c(=O)oc2c1C (stereo not given)	-14	0	1	-3	1	-8	-9	i

The list continues.
SMILES	eIF4H FP inh	Env fusion inh	MT1-MMP act inh	MT1-MMP act inh RFP	PABP FP inh	Yeast UUG start	CSC inhib	Rce1 inhib	others
Cc1cccc(Cc2cnc(N3C(=N)SC(c4ccccc4)C3=O)s2)c1 (stereo not given)	16	·	4	2	7	·	-11	i
O=C(OC(C(=O)O)C(OC(=O)c1ccccc1)C(=O)NCc1ccccc1)c1ccccc1 (stereo not given)	0	26	-2	1	12	-21	·	i
CC(=O)O[C@H]1C[C@@H]2CC[C@@H]3[C@H](CC[C@@]4(C)[C@H]3C[C@H]([N+]3(C)CCCCC3)[C@@H]4OC(C)=O)[C@@]2(C)C[C@@H]1[N+]1(C)CCCCC1	·	1	3	-3	·	-3	8	·
Cc1ccccc1CC1(CO)CCCN(Cc2ccn[nH]2)C1 (stereo not given)	4	-1	0	1	-1	-21	-9	i
Cc1cc(NC(=O)CSc2nnnn2C)n(-c2ccccc2)n1	-6	·	0	-2	0	-29	11	i
O=C(OCC(=O)N1CCOCC1)c1ccc(Cl)nc1	7	·	-1	-1	9	-18	-4	i
COc1ccccc1/C=C/C(=O)NC(=S)NC(C)C	1	-38	0	1	31	·	17	i
CC(=O)N1CCN(c2ccc(NC(=O)c3ccc4c(c3)OCO4)cc2)CC1	1	-12	0	-1	-4	-16	-16	i
CC(C)[C@H](NS(=O)(=O)c1ccc(Cl)cc1)C(=O)OCC(=O)NCCN1C(=O)CSC1=O	0	17	1	1	14	-10	-20	i
COc1ccc([N+](=O)[O-])cc1NCc1cccnc1	1	4	1	2	5	·	-7	i
COc1cc(C2C(C#N)=C(N)Oc3cc(O)ccc32)cc(OC)c1OC (stereo not given)	-8	-156	0	1	-11	-21	61	i
COc1cc(NC(=O)N2CCc3nc(NCc4cccc(Oc5ccccc5)c4)ncc3C2)cc(OC)c1OC	·	-12	3	-20	·	-26	·	·
CCOC(=O)C1=C(C)N(C)C(=O)NC1c1cc2c(cc1Br)OCO2 (stereo not given)	-11	·	2	7	-4	-1	-7	i
CC1=C(C(N)=O)C(c2sccc2C)n2nnnc2N1 (stereo not given)	1	4	1	2	-8	-20	2	i
CC1(C)CCCN(C(=O)N2c3ccccc3Sc3ccccc32)C1	-11	22	-1	-8	-4	-3	24	i
CCN(CC)c1ccc(/C=N\N2CCN(Cc3ccc(C)cc3)CC2)cc1	-19	3	-2	-6	4	·	21	i
Cn1cc(S(=O)(=O)c2ccccc2)n(C)c1=O	-5	-3	-4	-3	3	-12	-13	i
CN1CCN(C(=O)c2ccccc2NS(=O)(=O)c2ccc(F)cc2)CC1	·	4	1	3	·	-28	·	·
COc1ccc(-c2nnc(SCC(=O)Nc3ccccc3OC)o2)cc1	1	·	1	4	-3	-23	26	i
COc1cc2c(cc1OC)C(COc1ccccc1OC)N(C(=O)C(C)C)CC2 (stereo not given)	0	-6	1	-1	-4	·	-12	i
CC(C)CNC(=O)C1CCN(c2ccc(S(=O)(=O)N3CCOCC3)cc2)CC1	-8	9	4	-1	-7	·	-10	i
CCCCCCCC(=O)NNC(=O)c1ccc(F)cc1	-5	-41	-1	1	-2	-19	18	i
CC(C)(C)OC(=O)C[C@@H]1C/C=C\C[C@@H](CC(=O)N(CCO)Cc2ccccc2)C(=O)N[C@H](C(C)(C)C)COC1=O	·	-27	-2	2	·	0	-12	·
CC1(C)Cc2c(sc3nc(=S)[nH]c(N)c23)CO1	0	·	·	·	18	·	-22	i
CC12CCC(C(=O)NCc3ccc(F)cc3)(OC1=O)C2(C)C (stereo not given)	-5	0	-2	2	-2	·	1	i
COc1ccc(CN2C(=O)C(C)Nc3ncnc(N4CCN(c5ccccn5)CC4)c32)cc1 (stereo not given)	·	-8	-1	0	·	-14	·	·
N#CCc1ccccc1C(=O)OCC(=O)N(Cc1ccccc1)Cc1ccccc1	·	·	-4	0	·	-13	-17	·
O=C(Nc1ccc(C(=O)O)cc1)/C(=C\c1ccc(F)cc1)NC(=O)c1ccco1	5	-5	23	-2	4	-6	·	i
CCOC(=O)N1CCC(NC(=O)c2oc3c(c2C)-c2[nH]ncc2CC3)CC1	-1	-11	1	4	2	3	-8	i
O=C(CN1C(=O)c2ccc([N+](=O)[O-])cc2C1=O)NCCC1=CCCCC1	·	-2	4	6	·	8	-1	i
O=C(NC(=S)NC12CC3CC(CC(C3)C1)C2)c1ccc(F)cc1	·	-24	-1	-6	·	-16	-12	·
CC(=O)c1ccc(S(=O)(=O)N2CCC3(CC2)OCCO3)cc1	·	-7	0	0	·	-3	-14	i
CC(Sc1cccc[n+]1[O-])C(=O)Nc1cc(Cl)c(Cl)cc1Cl (stereo not given)	·	20	1	4	·	-16	5	·
CN(C)c1ccc(NC(=O)CCCCCn2nnc3ccccc3c2=O)cc1	5	1	2	3	-1	-16	-6	i
O=C(CCn1c(=S)[nH]c2ccccc2c1=O)NCCSCc1ccccc1	-3	8	0	-2	27	-15	3	i
CC(CSc1nnnn1-c1ccccc1)Cn1c(N2CCN(C)CC2)nc2c1c(=O)[nH]c(=O)n2C (stereo not given)	-7	3	-3	-1	-7	·	-13	i
Cn1c(N)c(C(=O)COC(=O)/C=C/c2ccc(Cl)cc2)c(=O)n(C)c1=O	·	-4	2	-9	·	6	-9	·
CCn1c(SCc2nc3ccccc3c(=O)[nH]2)nnc1C(C)NC(=O)c1ccccc1 (stereo not given)	-7	20	12	6	-11	-10	4	i
NC(=O)C1=C[C@H](C2CCCCC2)C[C@H](OCc2ccc(CO)cc2)O1	-12	-92	6	0	0	-6	-4	i
COc1ccc(/C=C/c2nnc(NC(C)=O)s2)cc1	-6	-71	2	1	2	-16	2	i
COc1ccc(NC(=O)CCCN2C(=O)CN(C)C2=O)c(OC)c1	·	25	1	-1	·	-1	5	·
Cc1nn(Cc2ccc(C(=O)Nc3ccccc3C(F)(F)F)o2)c(C)c1Br	4	2	-3	-5	5	-13	1	i
